Bioassay records from PubChem.
NPYLR7 ag: activates Aedes aegypti NPYLR7 receptor; HEK293T NPYLR7/Galpha15, GCaMP6s calcium fluorescence; activation, % at 10 µM; 270,000 tested, 0.15% active; in the data active means activation above about 40%;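 further: 0% = vehicle and 100% = reference agonist at the receptor; some compounds past the cut are filed as inactive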
NPYLR7 ag max-min: further read-out of NPYLR7 ag, marked with its call; activation, %; measured here: Max-Min RFU normalised activation; some inactives read as strong as hits;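 span of the calcium signal over five minutes; 0% = vehicle and 100% = native peptide agonist; compound fluorescence can raise it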
Active calls of the source: *; & = joins results of further samples. A portion of the library; the hit share may differ from the screen's.

SMILES | NPYLR7 ag | NPYLR7 ag max-min
COc1cc(OC)cc(C2SCCN2C(=O)c2ccc(C)cc2)c1 (stereo not drawn) | -4 | 2
Nc1nc2c3ccccc3nc(-c3ccccc3)n2n1 | -2 | -4
CCCC(=O)Nc1cc2c(cc1OC)NC(=O)CC2c1ccc(Cl)s1 (stereo not drawn) | 5 | -2
NC(=O)Cn1nc(-c2cccc(Br)c2)ccc1=O | 11 | 4
COc1cc(C#N)ccc1OCc1csc(-c2ccccc2)n1 | 2 | 15
CC(=O)NCC(=O)N1CCN(Cc2cccc(-c3noc(CC(C)C)n3)c2)CC1 | 3 | 0
FC(F)(F)c1ccc(NC(=S)NC2CC2)cc1 | 8 | 6
CC(C)C(C)N(CCn1c(=O)oc2ccccc21)Cc1ccco1 (stereo not drawn) | -2 | -3
O=S(=O)(c1cc(Br)ccc1Br)N1CCc2ccccc21 | -13 | -18
CCCc1cnc(C)nc1NC1CC(=O)N(C2Cc3ccccc3C2)C1 (stereo not drawn) | -1 | 0
CCc1nc2ccc(C(=O)N3CCNC(=O)C3)cn2c1N(C)C(=O)Cc1ccccc1 | 16 | 15
O=C(c1cccc(F)c1)N1CCN(S(=O)(=O)c2ccc(F)cc2F)CC1 | 3 | 3
Cn1ncc(-c2nc3c([nH]2)c(C2CC2)nn3C)c1-c1ccccc1 | 1 | -3
CN1CC(=O)N2C[C@@H](NS(=O)(=O)NCc3ccccc3)C[C@H]2C1=O | -2 | -2
Cn1nc(C(=O)N2CCN(Cc3cccs3)CC2)c2ccccc2c1=O | 10 | 7
CCCCOC(=O)N1C[C@@H](C(=O)OCC)[C@@H]2Oc3ccc(Cl)cc3[C@@H]21 | 2 | 13
COC(=O)COc1ccc(-c2nnc(Nc3ccc(O)cc3)c3ccccc23)cc1 | -17 | -22
O=C(CSc1ccc(NC(=O)C2CC2)nn1)NCC1CCCO1 (stereo not drawn) | 0 | -1
c1ccc(CSc2nnc3c(n2)[nH]c2ccccc23)cc1 | 2 | 3
Fc1ccc(Nc2n[nH]c(=S)s2)cc1 | 3 | 3
Cc1nc2sc(C(=O)N3CCC4(CCCO4)CC3)c(C)c2c(=O)[nH]1 | 8 | 7
O=c1c(O)c(-c2ccc(O)cc2)oc2ccccc12 | -5 | -9
CSCCC(=O)N1CCC2(CCCN(Cc3ccc(F)cc3)C2=O)C1 (stereo not drawn) | -2 | -2
Cc1ccc(CN(C)C(=O)[C@@H](O)Cc2ccccc2)o1 | 20 | 8
COCCCn1ccnc1-c1nccn1C | 0 | 0
Cc1occc1C(=O)NC1CCCc2c1cnn2-c1ccc(C(C)(C)C)cc1 (stereo not drawn) | 12 | 12
CC(=NNC(=O)c1ccccc1)c1ccc2c(c1)Nc1ccccc1S2 | 1 | -4
Cc1ccc2c(c1)NC(=O)c1cc(NC(=O)OCc3ccccc3)ccc1O2 | 2 | 1
COc1ncccc1NC(=O)Cn1c(C)cc(-c2csc(C)n2)c1C | 7 | 4
CCN(CC)CCNC(=O)C1=Cc2sc(C)c(C)c2CS1 | 1 | -1
O=S(=O)(c1cccc(F)c1)N1CCN(c2nc3nccc(-c4cccc(C(F)(F)F)c4)n3n2)CC1 | 5 | 0
CCOc1ccc(CN2CCCn3cncc3C2)cc1CO | 6 | 2
CC(NS(=O)(=O)c1ccc2ccccc2c1)(C(N)=O)c1ccccc1 (stereo not drawn) | 4 | 1
CCOc1ccccc1N1CCN(C(=O)c2cc(-c3cccs3)nn2-c2ccc(Cl)c(Cl)c2)CC1 | 29 | 38
COCCNC(CC(=O)Nc1cc(Cl)cc(Cl)c1)C(=O)O (stereo not drawn) | 20 | 15
CC(C)c1nc(CNC(=O)c2cc(COc3ccccc3)[nH]n2)cs1 | 1 | -4
CC(C)c1cc(C(=O)N2CCCC(N3CCN(c4cccc(C(F)(F)F)c4)CC3)C2)on1 (stereo not drawn) | 5&14 | 3&8
CCCCc1nc(N2CCCN(Cc3ccccc3O)CC2)c2c(C)nn(-c3ccc(F)cc3)c2n1 | 5 | 9
Cc1cc(S(=O)(=O)NCC2CCN(C3CC3)C2)ccc1F (stereo not drawn) | 4 | 3
CC(Sc1nnc(-c2ccccc2)n1C)C(=O)Nc1sccc1C#N (stereo not drawn) | 2 | -4
COc1ccc(C=CC(=O)Nc2c(C(=O)N3CCOCC3)oc3ccccc23)cc1 | 1 | 0
O=C(NCc1nc(C2CCCCC2)no1)c1cccc2ccnn12 | 27 | 11
Clc1cncc(N2CCC(Nc3ccccc3)C2)n1 (stereo not drawn) | 6&-2 | 3&-2
COc1ccc(Cl)c2c(=O)c(CN(C)C3CCN(C)CC3)c(C)[nH]c12 | -5 | -7
Cc1nn(C)c(Cl)c1C(=O)NC(C)CCc1ccccc1 (stereo not drawn) | 0 | 0
COc1ccc(OCCN(C)C(=O)c2c[nH]c3ccccc23)cc1 | -3 | -4
CCC(c1nc2ccccc2c(=O)n1-c1ccccc1OC)N(Cc1ccccc1)C(=O)c1cccc(Br)c1 (stereo not drawn) | 23 | 18
Cc1ccc(-c2nc(CNC(=O)c3cnn(C)c3)[nH]c2-c2ccccn2)cc1 | -1 | -3
CC(=O)Nc1ccc(Nc2ccc(-n3ccc(C)n3)nn2)cc1 | -8 | -11
CCc1csc(CNC(=O)c2ccc(N3C[C@H]4CC[C@H]3C4)nc2)n1 | 5 | 1
COC(=O)[C@@H]1C[C@@H](OCc2ccccc2)CN1C(=O)c1ccn(S(=O)(=O)c2ccc(C)cc2)c1 | -1 | 7
CCCCCc1ccc(C(=O)N(CCOC)CC(=O)N(CCc2c[nH]c3ccccc23)Cc2ccccc2)cc1 | 21 | 23
COCCCNC(=O)C(C1CCCC1)N1CCN(C(=O)c2ccccc2C(F)(F)F)CC1 (stereo not drawn) | -6 | 2
C[C@@H](NC(=O)CN1Cc2ccc(N3CCOCC3)nc2C1=O)c1ccccc1 | 61* | 63*
CCN(C(=O)c1nn(CC)c(=O)c2ccccc12)c1ccc(F)cc1 | 10 | 7
O=C(CSc1nc2c([nH]c3ccccc32)c(=O)n1-c1ccc(Cl)cc1)Nc1nccs1 | 11 | 16
Cc1csc(SCc2csc(-c3ccc(Cl)cc3)n2)n1 | 6 | 5
COc1ccc(-n2cnnc2SC(C)c2nc(C(C)C)no2)cn1 (stereo not drawn) | -4 | -8
Cc1cc(C)c2sc(N(Cc3cccnc3)C(=O)C3=COCCO3)nc2c1 | -16 | -13
Cc1cc(C(=O)NCc2cccnc2N2CCOCC2)no1 | 3 | 1
The listing continues:
SMILES | NPYLR7 ag | NPYLR7 ag max-min
N#CC(C(=O)CC(c1ccccc1)c1ccccc1)C(=O)N1CCCC1 (stereo not drawn) | 9 | 5
O=C(Cc1c(Cl)cccc1Cl)Nc1ccccc1CN1CCSCC1 | -10 | -13
Cc1cc(C=C2C(=O)NC(=S)NC2=O)c(C)n1-c1ccc(Br)cc1 | -1 | -6
CC(C)(C)C(CO)Nc1ncnc2c1nnn2-c1ccccc1 (stereo not drawn) | 6 | 4
CCO[C@H]1COC[C@@H]1NC(=O)CN1CCC(C)=N1 | 27 | 20
FC(F)(F)c1ccccc1NC(=S)NN=C1CC2CC=CC12 (stereo not drawn) | 5 | 5
O=C1NCCN2CCN(C(=O)CSCCN3CCCC3)CC12 (stereo not drawn) | 4 | -1
Cc1ccc(-c2nc(CNC(=O)c3cccnn3)[nH]c2-c2ccccn2)cc1 | 20 | 8
CCCC1=NN(C(C)=O)C(C(=O)N2CCC[C@H]2CN2CCCC2)O1 (stereo partly drawn) | 10 | 7
Cc1ccc(S(=O)(=O)NNC(=O)Nc2ccccc2)cc1 | -6 | 8
COc1ccccc1Cn1ccc2c(cnc3nc(-c4ccncc4)nn32)c1=O | 9 | 13
COc1ccc(F)c(CN2CCC(N3CCC(C(=O)N4CCCC4)CC3)CC2)c1 | 4 | -4
O=S(=O)(Nc1ccccc1OCC(F)(F)F)c1cccc(Br)c1 | 14 | 12
O=C1Nc2cc(Cl)ccc2C1=C1CCN(C(=O)C2CCC2)CC1 | 5 | 3
Cc1ccc2c(c1)CCN1C(=O)CN(C(=O)c3cccc(C(F)(F)F)c3)CC21 (stereo not drawn) | -8 | 7
CCNC(=O)C1CCN(c2nc(N(C)C)nc3c2CCN(C(C)=O)C3)C1 (stereo not drawn) | 3 | 1
COc1ccccc1Cn1c(C)c(C(=O)NCCC#N)sc1=O | 2 | -4
Oc1ccc(-c2csc(-c3cccnc3)n2)c(O)c1 | 8 | 8
Cc1cccc2cc(C3CC(c4cccs4)=NN3C(=O)CCC(=O)O)c(Cl)nc12 (stereo not drawn) | -1 | -8
O=C(COc1coc(C(=O)Nc2ccncc2)cc1=O)Nc1ccccc1 | -3 | -2
Cc1cn2c3c(=O)n(Cc4c(Cl)cccc4Cl)c(=O)n(C)c3nc2n1CCO | 7 | 7
COC(=O)c1ccc(Cn2nc(-c3ccco3)c3sc(C)nc3c2=O)cc1 | 3 | 0
CCCCCc1ccc(C(=O)N(CCOC)CC(=O)N(CCc2ccc(OC)c(OC)c2)Cc2cccs2)cc1 | 19 | 22
Cc1ccc(-c2cc(C(F)(F)F)n3nc(C(=O)N4CCN(C)CC4)cc3n2)cc1 | -9 | -14
Cc1ncc(CO)c2c1Oc1nc(-c3ccccc3F)nc(SCC(=O)Nc3ccccc3)c1C2 | 7 | 7
NC(=O)C1=C(N)SC2C(=O)N(c3ccc4ccccc4c3)C(=O)C2C1c1ccccc1O (stereo not drawn) | 21 | 31
Fc1ccccc1-c1noc2nc(NC3CC3)ccc12 | 1 | -1
CCCC(=O)Nc1cc(C(=O)NC(C)Cc2ccncc2)ccc1C (stereo not drawn) | -1 | 0
O=C(Nc1cccc(-c2ccn[nH]2)c1)c1ccc[nH]c1=S | -3 | -5
O=C(c1cc(C(F)(F)F)cc(C(F)(F)F)c1)N1CCc2ccccc2C1c1ccccc1F (stereo not drawn) | -2 | -1
Cc1ccc(OCC(=O)NCc2ccc(S(N)(=O)=O)s2)c(C)c1 | 21 | 17
O=C(C1CCC1)N(Cc1ccco1)Cc1nccn1Cc1ccccc1C(F)(F)F | -8 | 5
COc1ccccc1CN(Cc1cccnc1)Cc1nccs1 | -2 | -5
Cc1cnccc1NCCn1ccnc1-c1nc2ccccc2n1C | 2 | -4
CCCn1cc(C(=O)N2Cc3cnc(CC(C)C)nc3C2)c(C)n1 | -1 | -8
O=C(Nc1nncs1)c1ccc(S(=O)(=O)Nc2ccccc2)cc1 | 9 | 4
CCCCn1c(=S)[nH]c2cc(S(N)(=O)=O)ccc21 | 4 | 2
Cc1nc(-c2ccc(C(C)N3CCOCC3)cc2)cc(-n2cccn2)n1 (stereo not drawn) | 3 | 1
CCN(CC1CCCO1)C(=O)CC1(c2ccccc2OC)CC(=O)N(C)C1=O (stereo not drawn) | 15 | 6
Cc1ccc(-c2cc(C(=O)Nc3ccc(Cl)c([N+](=O)[O-])c3)c3ccccc3n2)s1 | 4 | 2
CCn1nc(C)cc1C(=O)Nc1c(C)c(C2CC2)nn1-c1ccccc1 | -3 | -6
CCn1nnc2c(=O)n(CC(=O)NC(C)C)cnc21 | 1 | 18
CCc1nc(C)sc1CNC(=O)C1CCN(Cc2ccco2)CC1 | 5 | -5
Cc1cc(C)cc(-c2nnc(SCc3cc(Cl)c4c(c3)OCCO4)o2)c1 | -4 | -4
O=C1CN(c2ncnc3scc(-c4ccc(Cl)cc4)c23)CCN1 | -1 | -3
Cc1ccc(CNC(=O)CNC2(C(N)=O)CCCC2)cc1F | -1 | 2
c1ccc(OCc2noc(-c3ccc(NCc4ccon4)nc3)n2)cc1 | 4 | 0
Cc1ccc2nc(Nc3nc(C)cc(C(F)(F)F)n3)nc(C)c2c1 | -2 | -5
COc1cccc(N(Cc2nnc3n2CCCCC3)C(=O)Nc2cccc(C)c2)c1 | 6 | 7
Cc1c(Br)c([N+](=O)[O-])nn1CC(=O)Nc1ccc(Oc2ccc(Cl)cc2)cc1 | 10 | 5
O=C(O)CC1(CC(=O)Nc2nccs2)CCCC1 | 5 | 6
CC1=C(C(=O)Nc2cc3cn[nH]c3cc2F)C(c2ccc(C(F)(F)F)cc2)CC(=O)N1 (stereo not drawn) | -1 | 2
O=C(O)COc1ccccc1CN1CCCN2CCC[C@H]2C1 | 2 | 5
C=CCN(Cc1ccccc1OC)C(=O)c1ccoc1C | 2 | -8
O=C(Nc1ccccc1CCO)c1ccccc1C1CCNC1 (stereo not drawn) | 1 | -3
COc1cc(-c2nc3ccccn3c2NC(C)(C)CC(C)(C)C)ccc1OC(=O)c1ccccc1F | 7&-7 | 9&1
Nc1nnc(-c2ccccc2)o1 | -5 | -13
